GIRK2 activ: GIRK2 channel activation. HEK293-GIRK2 thallium flux, Thallos fluorescence. AID 1259325. P48051. 63,000 compounds, 0.05% hits. calls only for hits at 25 µM;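 active means among the strongest 0.2% of first-round signals and kept after retests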;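 further: first round at about 10 µM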
Target sequence (P48051 whole entry, looked up): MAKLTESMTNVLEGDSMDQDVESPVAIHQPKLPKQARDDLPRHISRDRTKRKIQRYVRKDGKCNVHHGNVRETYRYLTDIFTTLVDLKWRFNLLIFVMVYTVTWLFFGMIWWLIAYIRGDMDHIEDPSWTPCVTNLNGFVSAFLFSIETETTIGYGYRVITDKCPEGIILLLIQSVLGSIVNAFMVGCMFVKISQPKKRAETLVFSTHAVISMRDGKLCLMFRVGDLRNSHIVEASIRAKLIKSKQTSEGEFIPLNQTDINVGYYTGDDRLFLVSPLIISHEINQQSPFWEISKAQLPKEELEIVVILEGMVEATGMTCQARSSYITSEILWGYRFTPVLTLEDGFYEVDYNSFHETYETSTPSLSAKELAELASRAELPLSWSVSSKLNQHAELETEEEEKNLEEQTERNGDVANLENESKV
Calls only; i = inactive.

# | GIRK2 activ | SMILES
1 | i | COc1ccc(Cl)cc1NC(=O)Nc1cnc(N(C)C)nc1
2 | i | CN1CCN(c2nc3cc(C(F)(F)F)ccc3n3cccc23)CC1
3 | i | CCOc1ccc(-n2nnc3c(=O)n(Cc4nc(-c5ccc(OC)cc5)no4)cnc32)cc1
4 | i | CCn1c(=O)c2c(nc3n2CCCN3c2ccccc2)n(C)c1=O
5 | i | CC(C)NC(=O)c1nnn(-c2ccccc2)c1-c1ccccc1
6 | i | O=Cc1ccc(CCC(=O)O)cc1
7 | i | CSCC(C)(O)CNS(=O)(=O)c1ccc2c(c1)CCCC2 (stereo not given)
8 | i | O=S(=O)(c1ccc(F)c(Cl)c1)N1CC(c2nc(-c3cnccn3)no2)C1
9 | i | COc1ccc(NC(=O)Cn2nc3cc(C)nc(Nc4ccc(F)c(C)c4)n3c2=O)cc1
10 | i | CC(=O)Nc1ccc(S(=O)(=O)N2CCN(c3ccccc3C)CC2)cc1
11 | i | O=C(NCCN1CCN(c2ccccc2)CC1)C(=O)NC1CC1
12 | i | Cc1ccc(N2CCN(S(=O)(=O)c3cc(Cl)ccc3Cl)CC2)c(C)c1
13 | i | Cc1nc(-c2cccs2)sc1C(=O)Nc1cc(N2CCCC2)ncn1
14 | i | COc1ccc(/C=C/C(=O)NCC2(c3ccccc3)CCOCC2)cc1OC
15 | i | COc1ccc(C(=O)N2CCN(c3ccc(-c4ccc(C)cc4)nn3)CC2)cc1OC
16 | i | COCCCn1c(=O)c2ccccc2n(Cc2nc(-c3cccc(Br)c3)no2)c1=O
17 | i | COC(=O)N1CCN(CCNC(=O)NC(c2ccccc2)c2ccccc2)CC1
18 | i | O=C(Cn1nc(-c2ccc(F)cc2)c2sc(N3CCOCC3)nc2c1=O)NCc1ccccc1
19 | i | COC1(CNC(=O)c2cc(C)oc2C)CCSC1 (stereo not given)
20 | i | COCCCn1c(C(=O)Nc2ccc(OC)cc2OC)cc2c(=O)n3ccccc3nc21
21 | i | COC(=O)Cn1c(=O)c2c(nc3n2CCCN3c2cccc(OC)c2)n(C)c1=O
22 | i | COC(=O)Cn1cnc2c(-c3cccc(Cl)c3)csc2c1=O
23 | i | COc1cccc(-n2nnc(C(=O)NCc3ccccc3F)c2-c2cccnc2)c1
24 | i | Cc1ccccc1COc1ccc(N2CCn3c2nc2c3c(=O)n(C)c(=O)n2C)cc1
25 | i | O=C(CSc1nnc2scc(-c3ccc(Cl)cc3)n12)Nc1nsc(-c2ccccc2)n1
26 | i | CCOc1ccc(Nc2ncccc2[N+](=O)[O-])cc1
27 | i | N#C/C(C(=O)Nc1ccccc1Cl)=C1/SC(Cc2ccc(Cl)cc2)C(=O)N1c1ccccc1 (stereo not given)
28 | i | Cc1cccc(NC(=O)c2ccc3nnc(SCC(=O)Nc4ccc(Br)cc4)n3c2)c1
29 | i | O=C(CCC1CCCC1)NC1CCN(C(=O)c2cn(-c3ccc(F)cc3)nn2)CC1
30 | i | CSc1ccccc1CN1CCC(CNC(=O)c2cc(C3CC3)on2)CC1

Next section; it opens with the 4 that closed the last part.
# | GIRK2 activ | SMILES
27 | i | N#C/C(C(=O)Nc1ccccc1Cl)=C1/SC(Cc2ccc(Cl)cc2)C(=O)N1c1ccccc1 (stereo not given)
28 | i | Cc1cccc(NC(=O)c2ccc3nnc(SCC(=O)Nc4ccc(Br)cc4)n3c2)c1
29 | i | O=C(CCC1CCCC1)NC1CCN(C(=O)c2cn(-c3ccc(F)cc3)nn2)CC1
30 | i | CSc1ccccc1CN1CCC(CNC(=O)c2cc(C3CC3)on2)CC1
31 | i | CC(C)c1nnc(C2CCN(C(=O)NCCCc3ccccc3)CC2)o1
32 | i | C=CCn1c(=O)c2c(nc3n(CCc4ccc(OC)c(OC)c4)c(C)c(C)n23)n(C)c1=O
33 | i | COC(=O)c1ccccc1NC(=O)Cn1c(N2CCCC2)nc(C)cc1=O
34 | i | O=C(Cn1nnn(-c2ccc(NC(=O)c3cc(=O)c4ccccc4o3)cc2)c1=O)NC1CC1
35 | i | CC1CN(C(=S)NC(=O)c2ccc(Cl)cc2Cl)CC(C)O1 (stereo not given)
36 | i | COc1cc(OC)cc(C(=O)NCCN2CCN(S(=O)(=O)c3ccc(C)cc3)CC2)c1
37 | i | COc1ccc(OC)c(N2CCn3c2nc2c3c(=O)n(Cc3ccccc3C)c(=O)n2C)c1
38 | i | COc1ccccc1OCCn1c(C2CC(=O)N(C(C)(C)C)C2)nc2ccccc21 (stereo not given)
39 | i | COC(=O)c1scc(-c2ccc(C)cc2)c1S(=O)(=O)Nc1ccc(NC(C)=O)cc1
40 | i | COC(=O)c1ccc(S(=O)(=O)N(CCc2ccccc2)Cc2ccccn2)cc1
41 | i | Cc1ccc2c(c1)OCC(=O)N2Cc1nc(-c2ccc(OC(F)(F)F)cc2)no1
42 | i | Cn1c(=S)[nH]c2c(-c3ccccc3)csc2c1=O
43 | i | CNC(=O)Cc1csc(NC(=O)c2cc(-c3ccco3)[nH]n2)n1
44 | i | O=C(CN1CC(c2nc(-c3cccc(Cl)c3)no2)C1)Nc1cccc(F)c1
45 | i | COc1ccc(Cl)cc1C(=O)NCC(O)c1ccc2c(c1)CCO2 (stereo not given)
46 | i | CSc1ccc2nc(N(CCN3CCOCC3)C(=O)c3ccccc3)sc2c1
47 | i | COc1ccc(F)cc1S(=O)(=O)NCC1CCN(C(C)C)CC1
48 | i | CCOc1ccccc1NC(=O)N1CCC(Cn2c(C)nc3ccccc32)CC1
49 | i | O=C(NCCCn1ncccc1=O)Nc1ccc2c(c1)OCCO2
50 | i | O=C(CCc1csc(NC(=O)c2ccco2)n1)NCCc1ccccc1
51 | i | O=C(c1ccc(Cl)s1)N1CCC(CSC2=NCCS2)CC1
52 | i | Cc1cccc(N2CCCn3c2nc2c3c(=O)n(CCCO)c(=O)n2C)c1C
53 | i | CCCc1nnsc1C(=O)Nc1ccc(-c2nc(C)no2)cc1
54 | i | O=C(NCCOc1ccccc1)Nc1ccccc1-c1ccc(=O)[nH]n1
55 | i | O=C(Nc1cccc(Cl)c1Cl)C1COCC(=O)N1Cc1cccs1 (stereo not given)
56 | i | Cc1ccc(-c2cc(C(=O)N3CCC(NC(=O)c4ccc(C#N)cc4)CC3)[nH]n2)cc1C
57 | i | CCN(CC)CCN1C(=O)c2oc3ccccc3c(=O)c2C1c1ccc(C(C)C)cc1 (stereo not given)
58 | i | COc1ccccc1-n1ncc2c(C(C)C)nnc(SCC(=O)Nc3ccc(C(C)=O)cc3)c21
59 | i | CC1CCN(S(=O)(=O)c2cccs2)CC1
60 | i | CSc1cccc(NC(=O)CN2CCN(c3ccc4c(c3)OCO4)C2=O)c1

4 of the compounds above, with each value named:
57	CCN(CC)CCN1C(=O)c2oc3ccccc3c(=O)c2C1c1ccc(C(C)C)cc1 (stereo not given)
  GIRK2 activ: i

58	COc1ccccc1-n1ncc2c(C(C)C)nnc(SCC(=O)Nc3ccc(C(C)=O)cc3)c21
  GIRK2 activ: i

59	CC1CCN(S(=O)(=O)c2cccs2)CC1
  GIRK2 activ: i

60	CSc1cccc(NC(=O)CN2CCN(c3ccc4c(c3)OCO4)C2=O)c1
  GIRK2 activ: i

Carrying on:
# | GIRK2 activ | SMILES
61 | i | O=C1CCc2cc(NS(=O)(=O)c3ccc(Cl)s3)ccc2N1
62 | i | O=C1c2oc3ccc(Cl)cc3c(=O)c2C(c2cccc(Cl)c2)N1c1nccs1 (stereo not given)
63 | i | Cc1ccc(-c2ccc3nnc(CCC(=O)N4CCN(c5ccccc5F)CC4)n3n2)cc1C
64 | i | CC(C(=O)Nc1ccc2c(c1)Cc1ccccc1-2)n1nc(-c2ccco2)ccc1=O (stereo not given)
65 | i | Cc1ccnc(Nc2cc(NCCNC(=O)Nc3ccccc3F)nc(C)n2)c1
66 | i | CS(=O)(=O)N1CCN=C1SCc1cccc(Cl)c1
67 | i | O=c1cccnn1CCNS(=O)(=O)c1cccc(C(F)(F)F)c1
68 | i | O=C(COc1ccc(Cl)cc1)NCC1(CO)CC1
69 | i | O=C(Nc1ccc2c(c1)N(C(=O)C1CC1)CC2)Nc1ccccc1C(F)(F)F
70 | i | CC(=O)OCC(=O)C12OC3(CCCC3)OC1CC1C3CCC4=CC(=O)C=CC4(C)C3(F)C(O)CC12C (stereo not given)
71 | i | O=C(OC1CN(c2nc3c(F)cc(F)cc3s2)C1)c1cnn(-c2ccccc2)n1
72 | i | CCOC(=O)N1CCN(C(=O)Nc2nc(CC(N)=O)cs2)CC1
73 | i | COC(=O)COc1ccc2c(=O)c(Oc3ccccc3Br)c(C)oc2c1
74 | i | O=C(c1ccccn1)N1CCN(CCn2cccn2)CC1
75 | i | CS(=O)(=O)N1CCC(C(=O)N2CCN(CCc3nc(-c4cccs4)cs3)CC2)CC1
76 | i | COc1ccc(NC(=O)CCc2nc3sc4c(c3c(=O)[nH]2)CCCCC4)cc1

Down the list, quoted from above:
GIRK2 activ, entries 64–71, in order: i, i, i, i, i, i, i, i

6 compounds picked at random from those above:
# | GIRK2 activ | SMILES
73 | i | COC(=O)COc1ccc2c(=O)c(Oc3ccccc3Br)c(C)oc2c1
70 | i | CC(=O)OCC(=O)C12OC3(CCCC3)OC1CC1C3CCC4=CC(=O)C=CC4(C)C3(F)C(O)CC12C (stereo not given)
75 | i | CS(=O)(=O)N1CCC(C(=O)N2CCN(CCc3nc(-c4cccs4)cs3)CC2)CC1
67 | i | O=c1cccnn1CCNS(=O)(=O)c1cccc(C(F)(F)F)c1
63 | i | Cc1ccc(-c2ccc3nnc(CCC(=O)N4CCN(c5ccccc5F)CC4)n3n2)cc1C
69 | i | O=C(Nc1ccc2c(c1)N(C(=O)C1CC1)CC2)Nc1ccccc1C(F)(F)F

Assay outcomes deposited in PubChem by Vanderbilt University.

A portion of the library; rates above refer to the full screens.
